From PubChem BioAssay
BJeLR lethal = kills HRASV12-expressing BJeLR cells; BJeLR (HRASV12) viability, CellTiter-Glo ATP luminescence, 48 h; reference of the scale not given here; inhibition, % (concentration not given with the values); actives 0.17% (n = 300,000);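 active = replicate mean above 50%; inconclusive = above 50% but judged a plate artefact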;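 also: 50 nL library stock added to about 25 µL; numbers are from one replicate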
ugtP null kill = growth inhibition of S. aureus ugtP deletion strain; actives 0.54% (n = 330,000); S. aureus RN4220 ugtP deletion, OD600 growth, 16 h; some inactives read as strong as hits; growth inhibition, % (no concentration beside the values);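 active = z-score under -3 and OD600 up to 0.15 on both plates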;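 also: plate controls were untreated wells for no effect and antibiotic for full effect; wells of about 80 µL received 100 nL stock; the first replicate is given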
Bead autofluor = flagged as autofluorescent in microsphere protease counterscreen. compound autofluorescence counterscreen, microsphere flow cytometry; hits give high values. fluorescence intensity (test concentration not listed). actives 3.1% (n = 360,000);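 active = at least 3 SD above the mean of all compounds, about 16000 in these data; inconclusive = too few beads counted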;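 also: 100 nL of 1 mM stock went into each well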
Mtb hypoxia inh = inhibitors of hypoxia-regulated fluorescent reporter in Mycobacterium tuberculosis | M. tuberculosis hypoxia-regulated fluorescent reporter, fluorescence | actives 0.1% (n = 300,000) | fluorescence inhibition, % (no concentration beside the values);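 active = 35 to 45% if threefold the growth effect, above 45% if 1.5-fold the growth effect; inactive = the rest, general growth blockers included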;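 also: wells of about 50 µL received 100 nL stock; 0% = vehicle wells and 100% = reference inhibitor wells; whole bacteria with a GFP reporter of the hypoxia response; strong numbers were not always called active; many hits fall short of the cut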
PrP UTR inh = inhibition of PrP 5' UTR reporter expression; cell-based PrP 5' UTR mRNA reporter, plate reader; inhibition, % (no concentration beside the values); actives 0.35% (n = 340,000);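 active = every replicate at 50% or more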;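 also: 0 = median of the neutral control wells; tested in H4 reporter cells; numbers are from one replicate; inactives centre near -14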
Sa RN4220 lethal = kills Staphylococcus aureus RN4220; S. aureus RN4220 growth, OD600, 16 h; actives 0.33% (n = 330,000); inhibition, % (concentration not given with the values); AID 1259311;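 active = z-score of -3 or lower and OD600 up to 0.18 on both plates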;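 also: plate controls were untreated cells for no effect and reference antibiotic for full effect; stock transfer was 100 nL into about 80 µL; one replicate is shown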
Mtb hypoxia inh growth = second read-out of Mtb hypoxia inh, no call of its own (marks repeat the call); growth inhibition, %; measured here: M. tuberculosis growth (absorbance);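 0% = vehicle and 100% = reference antibiotic; read after six days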
Numbers without * were called inactive.

`COC(=O)c1ccccc1NC(=O)CSc1nc(-c2ccco2)cc(C(F)(F)F)n1` gave ugtP null kill 74, Bead autofluor 11294, Mtb hypoxia inh -5, PrP UTR inh -40, Sa RN4220 lethal 22 and Mtb hypoxia inh growth 4.
Screening CC(C)NC(=O)NC(=O)COC(=O)c1c2c(nc3ccccc13)CCC2 returned BJeLR lethal -2, ugtP null kill 1, Bead autofluor 3569, Mtb hypoxia inh -8, PrP UTR inh -16, Sa RN4220 lethal -1.2 and Mtb hypoxia inh growth 4.
`COc1ccc(C=NNC(=O)c2nnn(-c3nonc3N)c2CN(C)c2ccccc2)cc1` gave ugtP null kill 3, Mtb hypoxia inh 8, Sa RN4220 lethal 4.3 and Mtb hypoxia inh growth -3.
CC(=O)NC1=NC(=O)/C(=C/c2cc(C)n(-c3cccc(C(=O)O)c3)c2C)S1 was read as BJeLR lethal 0, Bead autofluor 4125 and PrP UTR inh -18.
`CN1CCN(c2nc(-c3cccs3)cc(C(F)(F)F)n2)CC1` gave BJeLR lethal 4, ugtP null kill 21, Bead autofluor inconclusive, Mtb hypoxia inh 9, PrP UTR inh -5, Sa RN4220 lethal 4.3 and Mtb hypoxia inh growth 16.
`COc1ccc(/C=C(/NC(=O)c2ccco2)C(=O)NCc2ccco2)cc1OC` gave BJeLR lethal -1, ugtP null kill 7, Bead autofluor 4231, Mtb hypoxia inh -1, PrP UTR inh 13, Sa RN4220 lethal 2.8 and Mtb hypoxia inh growth 1.
Screening COc1cccc(C2Nc3c(F)cc(Br)cc3C3C=CCC32)c1OC (stereo not given) returned BJeLR lethal 9, ugtP null kill 61, Bead autofluor 2438, Mtb hypoxia inh 7, PrP UTR inh 2, Sa RN4220 lethal 13 and Mtb hypoxia inh growth 7.
`C[C@@H]1CN(Cc2nc(-c3cnccn3)no2)C[C@H](C)O1` gave BJeLR lethal 1, ugtP null kill 1, Bead autofluor 4471, Mtb hypoxia inh -1, PrP UTR inh -33, Sa RN4220 lethal 4.0 and Mtb hypoxia inh growth 7.
Cc1csc(=O)n1CC(=O)OCC(=O)NCc1ccc(Cl)cc1Cl was read as BJeLR lethal -7, ugtP null kill 3, Mtb hypoxia inh 2, PrP UTR inh -8, Sa RN4220 lethal 4.3 and Mtb hypoxia inh growth -1.
O=C(NCc1ccc2c(c1)OCO2)C1CC(=O)N(CCc2ccc(F)cc2)C1 (stereo not given) was read as BJeLR lethal 3, ugtP null kill 6, Bead autofluor 3679, Mtb hypoxia inh 19, PrP UTR inh -19, Sa RN4220 lethal 0.7 and Mtb hypoxia inh growth 7.
Screening Cc1nc2scc(-c3cccs3)c2c(=O)n1N returned BJeLR lethal 6, ugtP null kill -9, Bead autofluor 1897, Mtb hypoxia inh 4, PrP UTR inh -17, Sa RN4220 lethal -2.0 and Mtb hypoxia inh growth 10.
`CNC(=O)C(Sc1ccccc1)c1ccccc1` (stereo not given) gave BJeLR lethal -16, ugtP null kill 1, Bead autofluor 6760, Mtb hypoxia inh 11, PrP UTR inh -2, Sa RN4220 lethal 2.5 and Mtb hypoxia inh growth 17.
CCCn1nnc2c(=O)oc3ccccc3c21 was read as BJeLR lethal 3, ugtP null kill 6, Bead autofluor 2477, Mtb hypoxia inh -1, PrP UTR inh -9, Sa RN4220 lethal 4.4 and Mtb hypoxia inh growth 7.
Screening S=c1[nH]c(-c2ccccc2)cn1N=Cc1ccc(Br)cc1 returned ugtP null kill 5, Mtb hypoxia inh 24, Sa RN4220 lethal 3.6 and Mtb hypoxia inh growth 27.
`O=S1(=O)[C@H]2C[C@H](CO)O[C@@]2(CO)CN1Cc1ccc(-c2cccc(Cl)c2)cc1` gave ugtP null kill -3, Bead autofluor 4289, Mtb hypoxia inh 3, PrP UTR inh -43, Sa RN4220 lethal -0.1 and Mtb hypoxia inh growth 7.
For NS(=O)(=O)c1cccc(NC(=O)COC(=O)Cc2ccc(S(=O)(=O)N3CCCCC3)s2)c1 the results were BJeLR lethal 4, ugtP null kill 6, Bead autofluor 4185, Mtb hypoxia inh 14, PrP UTR inh -23, Sa RN4220 lethal 6.8 and Mtb hypoxia inh growth 5.
`CC(C)Cn1c(=O)c2sccc2n2c(CCCC(=O)N3CCC(N4CCCCC4)CC3)nnc12` gave BJeLR lethal 8, ugtP null kill 2, Bead autofluor 5760, Mtb hypoxia inh 2, PrP UTR inh -22, Sa RN4220 lethal 2.7 and Mtb hypoxia inh growth 8.
`COc1ccc(C(=O)Nc2ccc(NC(=O)C3CC3)nc2)cc1` gave BJeLR lethal -3, ugtP null kill -3, Bead autofluor 5485, Mtb hypoxia inh 13, PrP UTR inh -31, Sa RN4220 lethal 5.6 and Mtb hypoxia inh growth 2.
`CCOC(=O)Cn1c(=O)c2c(nc(N3CCCCC3)n2C)n(C)c1=O` gave BJeLR lethal 1, ugtP null kill -5, Bead autofluor 2720, Mtb hypoxia inh 7, PrP UTR inh -12, Sa RN4220 lethal 3.5 and Mtb hypoxia inh growth 3.
`Cc1ccc2c(c1)-c1c(ssc1=S)C(C)(C)N2C(=O)CN1C(=O)c2ccccc2C1=O` gave BJeLR lethal -9, ugtP null kill -3, Bead autofluor 3989, PrP UTR inh -12 and Sa RN4220 lethal 1.5.
Screening CCc1nnc(NC(=O)C2CCN(c3cnccn3)CC2)s1 returned BJeLR lethal -6, ugtP null kill 2, Bead autofluor 6001, Mtb hypoxia inh 7, PrP UTR inh -12, Sa RN4220 lethal 0.5 and Mtb hypoxia inh growth 17.
For COc1ccc(N2C(=O)C3CCCN3C2c2cccc(F)c2)cc1Cl (stereo not given) the results were BJeLR lethal 7, ugtP null kill 13, Bead autofluor 7596, Mtb hypoxia inh 2, PrP UTR inh -18, Sa RN4220 lethal 6.8 and Mtb hypoxia inh growth 4.
CCC(C)NC(=O)C1c2ccccc2C(=O)N(c2ccc(OC)cc2)C1c1ccc(OC)cc1 (stereo not given) was read as BJeLR lethal 12, ugtP null kill 8, Bead autofluor 4804, Mtb hypoxia inh 4, PrP UTR inh -28, Sa RN4220 lethal 3.3 and Mtb hypoxia inh growth 4.
Screening CCCCn1c(-c2nn(C)c(C)c2Cl)n[nH]c1=S returned BJeLR lethal -7, ugtP null kill -7, Bead autofluor 3136, Mtb hypoxia inh 4, PrP UTR inh 2, Sa RN4220 lethal 3.4 and Mtb hypoxia inh growth 7.
`O=C(Cn1cnc2ccccc21)N/N=C/c1ccco1` gave BJeLR lethal -3, Bead autofluor 2083 and PrP UTR inh -18.
For COc1ccc(/C(N)=N/OC(=O)Cc2ccc(OC)c(OC)c2)cc1 the results were BJeLR lethal 8, ugtP null kill 7, Bead autofluor 8372, Mtb hypoxia inh 7, PrP UTR inh -21, Sa RN4220 lethal 0.0 and Mtb hypoxia inh growth 2.
`CCCCN(C(=O)Cc1cccs1)c1nnc(-c2cccnc2)s1` gave ugtP null kill -8, Bead autofluor 3423, PrP UTR inh -45 and Sa RN4220 lethal 4.1.
For Cc1ccccc1NC(=O)C1C2CC/C=C\CCC21 (stereo not given) the results were BJeLR lethal 7, ugtP null kill 4, Bead autofluor 2393, Mtb hypoxia inh 7, PrP UTR inh -33, Sa RN4220 lethal 1.1 and Mtb hypoxia inh growth 2.
`Nc1nonc1-c1nc2ccccc2n1CC(=O)N1CCN(c2ccc(F)cc2)CC1` gave BJeLR lethal -3, ugtP null kill 8, Bead autofluor 3533, Mtb hypoxia inh 1, PrP UTR inh -9, Sa RN4220 lethal 3.8 and Mtb hypoxia inh growth -3.
For O=C1NC(=O)/C(=C/c2ccccc2Cl)N1 the results were BJeLR lethal -2, ugtP null kill -1, Bead autofluor 4010, Mtb hypoxia inh 8, PrP UTR inh -19, Sa RN4220 lethal 1.8 and Mtb hypoxia inh growth 1.
`CC1CCCCC1NC(=O)C1CCC(CNS(=O)(=O)c2cccc3cccnc23)CC1` (stereo not given) gave BJeLR lethal -2, ugtP null kill 8, Mtb hypoxia inh -9, PrP UTR inh -15, Sa RN4220 lethal -1.2 and Mtb hypoxia inh growth -4.
O=C(c1cccc(N2CCCC2=O)c1)N1CCN(c2cccc(Cl)c2)CC1 was read as BJeLR lethal -13, ugtP null kill 6, Bead autofluor 5710, Mtb hypoxia inh -1, PrP UTR inh -35, Sa RN4220 lethal -6.1 and Mtb hypoxia inh growth 5.
`Cc1nn(-c2ccccc2)c(C)c1NC(=O)COC(=O)c1cc(Cl)ccc1O` gave BJeLR lethal -1, Bead autofluor inconclusive and PrP UTR inh -7.
For Cc1csc2c(=O)n(CCO)c(=O)[nH]c12 the results were BJeLR lethal -5, ugtP null kill 6, Mtb hypoxia inh -5, PrP UTR inh -19, Sa RN4220 lethal 3.6 and Mtb hypoxia inh growth 2.
Screening CCCCCc1c(C)[nH]c2nc3ccccc3n2c1=O returned BJeLR lethal 6, ugtP null kill 0, Bead autofluor 2958, Mtb hypoxia inh -7, Sa RN4220 lethal 3.1 and Mtb hypoxia inh growth -5.
For COCCN(C(=O)c1snc(C(N)=O)c1N)C(C(=O)NC1CCCCC1)c1ccc(F)cc1 (stereo not given) the results were BJeLR lethal -9, ugtP null kill 8, Bead autofluor 4417, Mtb hypoxia inh 1, PrP UTR inh -10, Sa RN4220 lethal 3.5 and Mtb hypoxia inh growth -2.
O=C(COC(=O)c1ccc2c(c1)C(=O)N(Cc1ccco1)C2=O)NCC(F)(F)F was read as BJeLR lethal -1, ugtP null kill 1, Bead autofluor 4186, Mtb hypoxia inh 10, PrP UTR inh -9, Sa RN4220 lethal -1.1 and Mtb hypoxia inh growth -2.
Screening CC1(C)Cc2c(sc3ncn4nc(-c5ccco5)nc4c23)CO1 returned BJeLR lethal -5, ugtP null kill -1, Bead autofluor 2887, Mtb hypoxia inh 9, PrP UTR inh -17, Sa RN4220 lethal 3.3 and Mtb hypoxia inh growth 10.
Screening O=C(NCCS(=O)(=O)N1CCN(c2ccccc2F)CC1)c1ccc(Br)cc1 returned BJeLR lethal 1, ugtP null kill -4, Bead autofluor 5492, Mtb hypoxia inh -2, PrP UTR inh -4, Sa RN4220 lethal 0.5 and Mtb hypoxia inh growth 11.
Screening CC(C)(C)NC(=O)NC12CC3CC(CC(C3)C1)C2 returned BJeLR lethal -2, ugtP null kill 1, Bead autofluor 4253, Mtb hypoxia inh 7, PrP UTR inh -25, Sa RN4220 lethal -0.9 and Mtb hypoxia inh growth -1.
Screening COc1cc2[nH]c(C(=O)N3CCC4(CC3)OCCO4)cc2c(OC)c1OC returned BJeLR lethal -17, ugtP null kill 15, Bead autofluor 4254, Mtb hypoxia inh 3, PrP UTR inh -7, Sa RN4220 lethal 5.6 and Mtb hypoxia inh growth -5.

Seven consecutive records already listed:
`Cc1nn(-c2ccccc2)c(C)c1NC(=O)COC(=O)c1cc(Cl)ccc1O` gave BJeLR lethal -1, Bead autofluor inconclusive and PrP UTR inh -7.
For Cc1csc2c(=O)n(CCO)c(=O)[nH]c12 the results were BJeLR lethal -5, ugtP null kill 6, Mtb hypoxia inh -5, PrP UTR inh -19, Sa RN4220 lethal 3.6 and Mtb hypoxia inh growth 2.
Screening CCCCCc1c(C)[nH]c2nc3ccccc3n2c1=O returned BJeLR lethal 6, ugtP null kill 0, Bead autofluor 2958, Mtb hypoxia inh -7, Sa RN4220 lethal 3.1 and Mtb hypoxia inh growth -5.
For COCCN(C(=O)c1snc(C(N)=O)c1N)C(C(=O)NC1CCCCC1)c1ccc(F)cc1 (stereo not given) the results were BJeLR lethal -9, ugtP null kill 8, Bead autofluor 4417, Mtb hypoxia inh 1, PrP UTR inh -10, Sa RN4220 lethal 3.5 and Mtb hypoxia inh growth -2.
O=C(COC(=O)c1ccc2c(c1)C(=O)N(Cc1ccco1)C2=O)NCC(F)(F)F was read as BJeLR lethal -1, ugtP null kill 1, Bead autofluor 4186, Mtb hypoxia inh 10, PrP UTR inh -9, Sa RN4220 lethal -1.1 and Mtb hypoxia inh growth -2.
Screening CC1(C)Cc2c(sc3ncn4nc(-c5ccco5)nc4c23)CO1 returned BJeLR lethal -5, ugtP null kill -1, Bead autofluor 2887, Mtb hypoxia inh 9, PrP UTR inh -17, Sa RN4220 lethal 3.3 and Mtb hypoxia inh growth 10.
Screening O=C(NCCS(=O)(=O)N1CCN(c2ccccc2F)CC1)c1ccc(Br)cc1 returned BJeLR lethal 1, ugtP null kill -4, Bead autofluor 5492, Mtb hypoxia inh -2, PrP UTR inh -4, Sa RN4220 lethal 0.5 and Mtb hypoxia inh growth 11.
